VDR inh = inhibitors of human vitamin D receptor | VDR-SRC2-3 peptide fluorescence polarization, 2 h | Potency, µM, for the others: max response, negative = inhibition, hits mostly inhibitors | actives 0.93% (n = 400,000); active = well fitted inhibition curve with a large enough effect; inconclusive = small, poorly fitted or top-dose-only effect, or another doubt; inactive = no such curve, though single readings can be large or run the other way; also: series mostly up to about 120 µM
Target sequence (P11473 whole entry, looked up): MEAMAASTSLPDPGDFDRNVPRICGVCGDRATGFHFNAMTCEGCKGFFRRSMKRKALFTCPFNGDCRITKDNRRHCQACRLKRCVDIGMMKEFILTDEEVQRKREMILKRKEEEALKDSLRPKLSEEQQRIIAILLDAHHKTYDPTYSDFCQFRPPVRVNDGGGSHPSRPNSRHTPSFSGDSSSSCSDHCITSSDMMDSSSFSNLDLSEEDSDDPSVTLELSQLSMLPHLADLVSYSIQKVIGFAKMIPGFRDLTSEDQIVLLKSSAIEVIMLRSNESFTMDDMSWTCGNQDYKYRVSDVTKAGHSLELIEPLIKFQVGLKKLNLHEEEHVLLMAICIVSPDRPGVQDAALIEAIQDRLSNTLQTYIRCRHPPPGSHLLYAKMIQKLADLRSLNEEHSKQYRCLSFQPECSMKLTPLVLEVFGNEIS
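Reagent solutions, kept cold and dark, are dispensed first; compounds are then pinned in at 23 nl, plates briefly spun, and incubated 2 h at ambient temperature. Inhibition of VDR–SRC2-3 peptide binding is read by fluorescence polarization.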
The depositor's hits bear a star; ? = inconclusive; & = joins results of further samples; [ ] = another dose, or the depositor's remark. % is scaled to controls: 0 for no effect and ±100 for the full control effect; potency is read from the fitted curve at half-maximal effect. Some of the compounds tested; the hit share may differ from the screen's.

SMILES	VDR inh
Cn1c(=O)[nH]c(=O)c2c1nc(N1CCCC1)n2CCCSc1nnnn1-c1ccccc1	-5%
CCCCOC(=O)CSc1nnc(-c2cc(OC)c(OC)c(OC)c2)o1	-9%
COc1ccccc1C(=O)Nc1ccc(S(=O)(=O)N2CCc3ccccc32)cc1	-10%
O=C(Nc1ccccc1)N(Cc1cccs1)c1ccc(Cl)cc1	7%
O=C(Cc1ccc(Br)cc1)Nc1ccc(Cl)cc1	-11%
Fc1cccc(Cl)c1CSC1=NCCS1	-14%
C[C@@H]1CC=C[C@H]2[C@H]1C(=O)N(Cc1ccccc1)[C@H]2c1ccc(-c2ccc(N(C)C)cc2)cc1F	-7%
CCOc1ccc(C(=O)Nc2ccc(OCc3cc(=O)n4cccc(C)c4n3)cc2)cc1	8%
O=C(NCc1ccc(Cl)cc1)C(=O)NCC(c1cccs1)S(=O)(=O)c1cccs1 (stereo not drawn)	3%
Cc1ccc(CNC(=O)CCS(=O)(=O)c2ccc3c(c2)oc(=O)n3C)cc1	-13%
CC(C)CCn1c(Oc2ccccc2F)nc2c1c(=O)n(C)c(=O)n2C	-2%
CCCNC(=O)NC(=O)COc1c(F)c(F)cc(F)c1F	-9%
COC(=O)c1ccc2nc(NC(=O)C(C)C)sc2c1	-9%
CCOC(=O)c1[nH]c2c(c1-c1ccc(OC)cc1)C(=O)CC(c1ccc(OC)c(OC)c1)C2 (stereo not drawn)	8%
COc1ccccc1CNc1ccc(-c2nc(C(C)C)no2)cc1[N+](=O)[O-]	10%
Cc1nc2c(ccc3nc(NC(=O)c4ccc(S(=O)(=O)N(C)C)cc4)sc32)s1	-9%
COc1ccccc1C(=O)Oc1ccc2c(c1)O/C(=C\c1ccncc1)C2=O	35µM*
O=C(Nc1cc(F)cc(F)c1)c1ccc(NCCc2ccccc2)c([N+](=O)[O-])c1	3%
CCc1ccc(NS(=O)(=O)c2ccc3c(c2)oc(=O)n3C)cc1	13%
Cc1ccc(N(CC(=O)NN=C2CCN(C)CC2)S(=O)(=O)c2ccccc2)c(C)c1	-7%
O=C(O)Cc1c(C(=O)O)[nH]c2ccc(C(=O)O)cc12	?
COCc1ccc(C(=O)NCC2(N3CCCCC3)CCCCC2)cc1	?
NC(=O)CCc1nc2cc(C(F)(F)F)ccc2n(Cc2ccccc2)c1=O	4%
CSc1ccc(Cl)c(C(=O)OCC(=O)N2CC(C)OC(C)C2)c1 (stereo not drawn)	-4%
COCOc1c2c(c(OCOC)c3c(OCOC)cccc13)/C(=N/N[S+](=O)([O-])c1ccc(C)cc1)C1=C2CCCC1	1%
CCn1c(C)nc2cc(-c3nc4n(n3)Cc3ccccc3-4)ccc21	-7%
COc1ccc(C(=O)Nc2ccccn2)cc1	-25%
Cc1cc(Br)c(NC(=O)c2c(-c3c(Cl)cccc3Cl)noc2C)c(Br)c1	-4%
C/C(N)=C(/C#N)C(=O)CSc1nnc(Nc2c(C)cccc2C)s1	-8%&0%
O=C(NC1=NCCS1)c1ccc(Cl)c(S(=O)(=O)N2CCc3ccccc32)c1	-1%

Reprinted at random: two records from the list
SMILES	VDR inh
Cc1cc(Br)c(NC(=O)c2c(-c3c(Cl)cccc3Cl)noc2C)c(Br)c1	-4%
O=C(NC1=NCCS1)c1ccc(Cl)c(S(=O)(=O)N2CCc3ccccc32)c1	-1%

(continued)
SMILES	VDR inh
CN(C)c1ccc(NC(=O)C(=O)C2C(=O)Nc3ccccc32)cc1 (stereo not drawn)	-28%
CC(C)C(=O)NC(=S)Nc1ccccc1N1CCN(C(=O)c2ccccc2)CC1	1%
O=C(CCNC(=O)c1ccccc1)Nc1ccc(Cl)c(S(=O)(=O)N2CCCCC2)c1	-19%
COc1ccc(C(C)NC(=O)CN(c2cc(OC)ccc2OC)S(=O)(=O)c2ccccc2)cc1 (stereo not drawn)	-21%
Cc1cccc(C)c1OCC(=O)N/N=C/C=C/c1ccco1	-19%
CC1CN(CC(=O)NC(C)c2ccccc2)CC(C)O1 (stereo not drawn)	-14%
CCOC(=O)c1c(NC(=O)c2ccc(Br)o2)sc(C)c1CC	-4%
O=C(NCCCN1CCOCC1)c1c(F)cccc1F	-10%
O=S(=O)(Nc1nc2ccccc2nc1NCc1ccco1)c1ccccc1	7%
O/N=C\c1ccccc1Oc1ccc(F)cc1	-10%
Cc1c(NC(=O)Cc2cccs2)cccc1[N+](=O)[O-]	-15%
CC(C)Oc1c(N2CCOCC2)c(=O)c1=O	-2%
Cc1ccc2ncc3c(-c4ccc(F)cc4)nn(CC(=O)Nc4ccccc4C)c3c2c1	2%
COC(=O)c1sccc1NC(=O)Cc1ccc(Br)cc1	-14%
CN1/C(=C\C=C2/SC(=S)NC2=O)C(C)(C)c2ccccc21	?
Cc1ccc(NC(=O)CSc2nc3nc(C)c(Br)cc3[nH]2)cc1F	3%
C[C@@](Cc1ccc(O)c(O)c1)(NN)C(=O)O	?
CCOC(=O)C1C(=O)CC(C)(O)C(C(=O)OCC)C1c1ccc(C)s1 (stereo not drawn)	-6%
Cc1cc2c(=Cc3ccc(N(C)C)cc3)c3ccccc3n2[n+]1C	-6%
COC(=O)C(Cc1ccccc1)NC(=O)CCNC(=O)c1ccco1 (stereo not drawn)	12%
COc1ccccc1N1CCN(c2ncnc3c2cnn3-c2cccc(Cl)c2)CC1	10%
CCOc1ccc(S(=O)(=O)NCc2cccnc2)cc1NC(=O)c1ccccc1F	-6%
COCCCNc1nc2ccccc2nc1NS(=O)(=O)c1ccc(C)c(C)c1	?
CS(=O)(=O)N(CCc1ccccc1)CC(=O)N1CCN(c2ccccc2)CC1	0%
Cc1ccc(OCC(=O)Nc2cccc(OCc3cc(=O)n4ccccc4n3)c2)cc1C	12%
Cc1c(C(=O)Oc2cc(N)n(S(C)(=O)=O)n2)cccc1[N+](=O)[O-]	79µM*
COc1cc(OC)c(C(=O)Nc2ccc(N(C)C)cc2)cc1OC	-2%
FC(F)(F)c1cccc(Oc2ccc3c(C(F)(F)F)cc(C(F)(F)F)nc3n2)c1	11%
CCNC(=S)Nc1sc2c(c1C#N)CCC(C)C2 (stereo not drawn)	-1%
O=C(/C=C/c1ccc(O)cc1)c1c(O)cc(O)cc1O	-21%&-6%
CCn1c(SCC(=O)Nc2cccc(C)c2)nc2nc3c(cc2c1=O)COC(C)(C)C3	8%
CCCSc1nc2cc(C)c(C)cc2n1CC(C)O (stereo not drawn)	-6%
CCOC(=O)Cc1cc(=O)[nH]c(/N=C(\N)Nc2ccc(C)c(C)c2)n1	-14%
COc1ccc(NS(=O)(=O)c2ccc(N3CCOCC3)c(NC(=O)c3ccccc3Cl)c2)cc1	8%
C/C(=N\Nc1cccc2cccnc12)c1ccccc1O	15%
Nc1cc(=O)nc(SCC(=O)Nc2ccc(F)cc2)n1-c1ccccc1Cl	8%
Cc1cccc(C(=O)NCc2nnc(SCC(=O)NC3CCCC3)n2C)c1	2%
Cc1cc(N)n(-c2ccccn2)n1	3%
CCCC(=O)Nc1ccc(C#Cc2ccccc2)cc1	-6%
Cc1ccc(S(=O)(=O)N2C(=O)CCC2C(=O)N2CCCCC2)cc1 (stereo not drawn)	6%
Cc1cc2nc(-c3ccc(NC(=O)c4ccccc4F)cc3)oc2cc1C	-5%
Cc1cc2c(s1)c1cnn(-c3ccccc3)c(=O)c1n2C	15%
O=C(O)CCNC(=O)/C(=C/C=C/c1ccccc1)NC(=O)c1ccccc1	-1%
O=C(NCCCn1ccnc1)/C(=C/c1cccnc1)NC(=O)c1ccco1	-6%
Cc1ccc(CC(=O)NCC(C)C)cc1	-8%
CCc1ccccc1OCc1nnc(N)s1	6%
Cc1cc(C(=O)NCc2cc(F)cc3c2OCOC3)nn1C	26%
CC(C)c1ccccc1OCCCCCNCCO	-17%
CN(C)S(=O)(=O)Nc1cccc(NC(=O)CC23CC4CC(CC(C4)C2)C3)c1	7%
Cc1cc(C(=O)OCC(=O)Nc2c(F)cccc2F)c(C)n1-c1ccccc1	?

Marked active in VDR inh (from the list above):
SMILES	VDR inh
COc1ccccc1C(=O)Oc1ccc2c(c1)O/C(=C\c1ccncc1)C2=O	35µM*
Cc1c(C(=O)Oc2cc(N)n(S(C)(=O)=O)n2)cccc1[N+](=O)[O-]	79µM*

Continuation:
SMILES	VDR inh
COc1ccccc1/C=C\C(=O)NCC(=O)N/N=C(/C)c1cccc([N+](=O)[O-])c1	12%
CC(C)n1c(SCC(=O)Nc2ccc(F)cc2)nc2c(oc3ccccc32)c1=O	-14%
Cc1ccc(C(=O)Nc2ccc(N3CCOCC3)c3nonc23)cc1[N+](=O)[O-]	-8%
CCCCn1c(N)c(N(CCOC)C(=O)COC(=O)COc2cccc(C(C)=O)c2)c(=O)[nH]c1=O	-13%
O=C(C1CCN(c2ccc(N3CCOCC3)nn2)CC1)N1CCN(c2ccc(F)cc2)CC1	10%
CCCn1nnc(NC(=O)c2sc3ccccc3c2Cl)n1	26%
CCC1(C(=O)OC)NC(c2cccc(F)c2)C2C(=O)N(C)C(=O)C21 (stereo not drawn)	-18%
CCOC(=O)c1sc(NC(=O)c2nc3nc(C)cc(C(F)F)n3n2)c(C(=O)OC(C)C)c1C	-26%
NC(=O)c1ccc2nc(-c3ccc(Oc4ccc(Cl)cc4)cc3)[nH]c2c1	-2%
O=C(Nc1cccc(-c2nn[nH]n2)c1)c1ccc(Cl)s1	-6%
COCCNC(=O)CN(C(=O)Cn1nnc2ccccc21)c1ccc(C)c(F)c1	-6%
COc1cccc(/C(C)=N/NC(=O)Cc2c(C)[nH][nH]c2=O)c1	-6%
COc1ccc(C(=O)N/N=C/c2ccccc2C(=O)O)cc1OC	-23%
Cc1ccc(NC2SC(=O)N(Cc3cccc(C(=O)O)c3)C2=O)c(C)c1 (stereo not drawn)	91%[activator]
COc1cccc(-c2nnn(CC(=O)Nc3cc(OC)c(NC(=O)c4ccco4)cc3OC)n2)c1	6%
O=C(Nc1c2c(nn1-c1ccc([N+](=O)[O-])cc1)CS(=O)(=O)C2)c1ccccc1F	11%
Cc1ccc(S(=O)(=O)N2CCN=C2SCc2ccccc2)cc1	-26%
CCOc1cc(/C=N/NC(=O)CCCC(=O)NC2CCCCC2)ccc1O	15%
CCCCN(C(=O)c1cccc(S(=O)(=O)N2CCN(C)CC2)c1)c1c(N)n(CC(C)C)c(=O)[nH]c1=O	-2%
Cc1cccc(NC(=O)CCCCCN2C(=O)c3ccccc3C2=O)n1	2%
COc1cccc(Nc2ncc3nc(C)c(=O)n(-c4ccccc4)c3n2)c1	10%
Nc1nc(NC(=O)c2cccs2)nn1-c1ccccc1	-22%
CC(=O)Nc1ccccc1-c1nc2ccccc2n(C(C)C(=O)c2ccc(C)c(C)c2)c1=O (stereo not drawn)	27%
C=CCOC(=O)C1=C[C@H](c2csc3ccccc23)C[C@H](OCCCCO)O1	-6%
CC[C@@]12C(=O)N(c3cccc(Br)c3)C(=O)N1[C@H](c1ccc(Cl)cc1)[C@@H]1C(=O)N(C3CCCCC3)C(=O)[C@@H]12	-2%
Cc1ccccc1Cn1c(=O)n(CCCCC(=O)NCc2ccccc2Cl)c(=O)c2ccccc21	-6%
Nc1nnc(SCC(=O)NCCNC(=O)CSc2nnc(N)s2)s1	9%
O=C(CS(=O)(=O)c1cccc2nsnc12)N1CCN(c2ccccc2F)CC1	-5%
COC(=O)c1ccc(NC(=O)C2C3C=CC(O3)C2C(=O)O)cc1 (stereo not drawn)	5%
Cc1cc(N2C(=O)CCC2=O)n(-c2ccccc2)n1	1%
Nc1ccn([C@@H]2O[C@H](COS(=O)(=O)O)[C@@H](O)[C@H]2O)c(=O)n1	0%
CN(C)S(=O)(=O)N1CCN(S(=O)(=O)c2ccccc2)CC1	-4%
CCCC(O)(CCN1CCOCC1)c1ccc(Cl)cc1 (stereo not drawn)	3%
Cc1[nH]c2ccc(C(=O)NCCN3CCCCCC3)cc2c1C	18%
COc1ccc2c(c1)[C@H]1[C@H](CO2)[C@H](c2ccccc2)[C@]2(C)C(=O)Nc3ccc(Br)cc3C(=O)N12	-3%
COc1ccc(C2c3c(-c4ccccc4)n[nH]c3C(=O)N2c2ccc(C(=O)O)cc2)cc1 (stereo not drawn)	5%
CCOc1ccc(OCCCC(=O)ON=C(N)c2ccccc2Cl)cc1	30%
COc1cc(CNS(=O)(=O)c2ccc3c(c2)CC(C)N3C(=O)C2CCC2)cc(OC)c1OC (stereo not drawn)	-10%
CCc1ccc(NC(=O)c2cc(=O)c3ccc(C)c(C)c3o2)cc1	7%
O=C(COn1nnc2ccccc21)NCC1CCCCC1	-1%
C/C(=N\NC(=O)c1cccc(S(=O)(=O)N2CCCC2)c1)c1cccs1	-18%
O=C(N1CCN(c2ccccc2F)CC1)C1(c2cccs2)CCOCC1	-4%
Cc1nc(-c2ccccc2)nc2[nH]c(-c3ccccc3)cc(=O)c12	-3%
O=C(c1ccc(Cl)cc1)c1c[nH]c(C(=O)NNc2cccc(Cl)n2)c1	4%
Cc1cc(C)nc(NS(=O)(=O)c2ccc(N3C(=O)c4ccccc4C3=O)cc2)n1	-19%
O=C(CN1C(=O)C2C3C=CC(C3)C2C1=O)Nc1ccc2nccnc2c1 (stereo not drawn)	-9%

Assay outcomes deposited in PubChem by National Center for Advancing Translational Sciences (NCATS).
